Screening results from PubChem.
RecA intein inh – Mtb RecA intein splicing inhibitors, primary screen, biochemical, fluorescence, HTS | cell-free RecA intein splicing | inhibition, %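 (about 9 µM by stock and volumes)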 | Protein RecA (Mycobacterium tuberculosis (strain ATCC 25618 / H37Rv)), P9WHJ3 | actives 0.75% (n = 290,000); in the data active = inhibition above about 30%; inconclusive = no clear call, values can overlap the other calls;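 note: 0% = vehicle wells and 100% = reference inhibitor control wells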
Target sequence (P9WHJ3 whole entry, looked up): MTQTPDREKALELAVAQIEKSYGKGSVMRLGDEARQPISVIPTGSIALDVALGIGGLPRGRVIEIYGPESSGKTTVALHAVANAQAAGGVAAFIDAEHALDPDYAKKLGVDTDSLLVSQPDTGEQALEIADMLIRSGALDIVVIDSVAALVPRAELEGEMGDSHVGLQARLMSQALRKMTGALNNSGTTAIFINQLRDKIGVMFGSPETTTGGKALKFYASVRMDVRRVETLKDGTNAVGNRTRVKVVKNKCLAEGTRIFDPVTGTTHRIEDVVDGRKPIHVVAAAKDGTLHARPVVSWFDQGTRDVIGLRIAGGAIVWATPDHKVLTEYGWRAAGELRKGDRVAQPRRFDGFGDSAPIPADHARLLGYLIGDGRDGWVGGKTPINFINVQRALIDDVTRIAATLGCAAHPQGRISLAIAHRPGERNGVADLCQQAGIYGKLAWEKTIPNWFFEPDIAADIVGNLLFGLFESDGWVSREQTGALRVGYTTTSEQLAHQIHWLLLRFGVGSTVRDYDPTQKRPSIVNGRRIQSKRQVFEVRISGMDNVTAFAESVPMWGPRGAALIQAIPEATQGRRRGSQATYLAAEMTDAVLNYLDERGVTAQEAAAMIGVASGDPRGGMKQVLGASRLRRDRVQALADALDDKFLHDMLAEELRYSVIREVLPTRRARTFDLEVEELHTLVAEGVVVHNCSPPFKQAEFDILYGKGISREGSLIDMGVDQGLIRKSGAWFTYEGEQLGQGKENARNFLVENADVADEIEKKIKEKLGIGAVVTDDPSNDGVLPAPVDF
YopH PTP inh – YopH tyrosine phosphatase inhibitors, primary screen, biochemical, fluorescence Ex485/Em525. YopH tyrosine phosphatase [Yersinia enterocolitica]. inhibition, %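 (about 10 µM by stock and volumes)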. actives 0.16% (n = 140,000);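 active = inhibition of 50% or more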;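 note: controls were vehicle for no effect and minimum signal wells for full effect; inactives centre near -20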
Mtb betalactam – beta-lactam sensitization of Mtb H37Rv, H37Rv | inhibition, % at 25 µM | actives 0.27% (n = 330,000) | M. tuberculosis H37Rv growth with meropenem, percent inhibition; hits of this screen are not shown here;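 active = about 74% or more and at least 40 points above the plate without the antibiotic, then above 30% in a dose series; inconclusive = first-round hits that could not be retested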;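 note: growth measured after seven days incubation then overnight dye step; 0% = bacteria only wells and 100% = bacteria with antibiotic; twin plates without the antibiotic show which effects depend on it; some results filed as inactive read as strong as hits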
Mtb H37Rv – M. tuberculosis H37Rv growth inhibitors, H37Rv strain (AID 1626); M. tuberculosis H37Rv growth inhibition; higher % means a stronger effect; actives 0.95% (n = 220,000); one-dose inhibition, % at 10 µM; IC50 in µM for titrated hits;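 active = confirmed in a dose series; inconclusive = inhibition above 80% but not taken into the dose series; inactive = below 80% or under 30% at every dose of the series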;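 note: bacteria incubated seven days before Alamar blue readout; 0% = bacteria only wells and 100% = bacteria with antibiotic wells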
Arbovirus inh – antivirals against arbovirus infection, primary screen, cell-based, full library, 10K replicate subset; arbovirus infection cell-based antiviral screen; inhibition, % at 10 µM; actives 0.37% (n = 200,000); AID 1251, 2008;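 active = inhibition from about 30%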;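 note: bluetongue infection of BSR cells; cell survival read as ATP light after 72 h; 0% = infected wells without compound and 100% = uninfected wells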
Arbovirus inh repeat – also measured in Arbovirus inh; calls as there; inhibition, %; measured here: 10K subset replicate screen; many hits read low in the repeat;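 first of two repeat runs on a subset; 0% = infected and 100% = uninfected wells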
Numbers without * were called inactive; ? = inconclusive; · = not tested or not shown. Only part of the results is shown, so the mix of outcomes need not match the whole.

SMILES	RecA intein inh	YopH PTP inh	Mtb betalactam	Mtb H37Rv	Arbovirus inh	others
CCOC(=O)N1CCN(C(=O)c2ccc3c(c2)sc2nc(-c4ccccc4)cn23)CC1	1.3	-25.1	-0.4	-0.7%	-3.1
Cc1cccc(NC(=O)COC(=O)c2ccc3c(=O)n4c(nc3c2)CCC4)c1	-2.0	-15.9	-2.4	4.6%	3.2
CCOC(=O)Nc1ccc2c(CN(C)Cc3ccc(F)cc3)cc(=O)oc2c1	0.2	·	-0.7	·	·
O=C(CCC(=O)N1CCOc2ccc(Cl)cc21)NCCCN1CCC(Cc2ccccc2)CC1	0.9	·	12.6	·	·
O=C(N/N=C/c1cccnc1)c1ccc(S(=O)(=O)N2CCCCCC2)cc1	-1.6	·	-4.1	-14.9%	·
O=S1(=O)CCC(NCC2CCCO2)C1 (stereo not drawn)	4.3	-29.2	-2.8	-0.5%	-0.2
COc1ccc(CNC(=O)CSc2nnc3c(n2)[nH]c2ccccc23)cc1	2.9	·	0.1	·	·
COc1cccc(NC(=O)Nc2ccc(Cc3ccncc3)cc2)c1	5.3	-14.2	5.9	-0.4%	-31.5
COc1ccc(OC)c(-n2nnnc2SCC(=O)N2CCN(C(=O)c3ccco3)CC2)c1	1.0	·	-1.6	-3.2%	-4.6
COc1ccc(CC(=O)Oc2ccc(Cl)cc2Br)cc1S(=O)(=O)N1CCOCC1	4.1	·	0.0	·	·
Cc1occc1C(=O)NNC(=S)NCC(C)C	1.2	-21.2	-4.9	2.6%	-3.4
O=C(CC1OC(=O)c2ccccc21)NC1CCCCC1 (stereo not drawn)	-2.2	-52.3	2.1	-3.8%	-9.3
O=C(c1ccccc1)N1CCCOC1c1ccccc1 (stereo not drawn)	4.7	-35.5	-7.5	-3.5%	6.9
CC(C)=CCN1CCN(Cc2cn[nH]c2C2CCCCC2)CC1CCO (stereo not drawn)	0.9	·	-6.0	-2.1%	8.4
Cc1ccc(C2=NNC(=O)C(c3ccc(Cl)cc3)C2)cc1 (stereo not drawn)	1.4	2.6	3.9	4.5%	6.4
COc1cccc(/C=N/n2c(COc3ccccc3)n[nH]c2=S)c1	-0.7	·	?	·	·
COc1cccc(C2C(C(N)=O)=C(C)Nc3nc(CCCO)nn32)c1OC (stereo not drawn)	-0.4	0.7	4.7	-7.4%	9.0	Arbovirus inh repeat=-1.8
CC[n+]1c(/C=C2\C=C(C)CC(C)C2)sc2ccccc21 (stereo not drawn)	12.5	-36.9	73.7	-6.1%	-15.0
Cc1ccc(C(=O)N2CCCC(CCC(=O)NCc3ccccc3F)C2)cn1 (stereo not drawn)	-3.7	·	?	·	·
Cc1ccc(-n2c(Cn3nc(C(F)(F)F)cc3C)n[nH]c2=S)cc1	-1.4	-0.9	-11.3	2.7%	3.8
CCN(CC)S(=O)(=O)c1cccc(NC(=O)COc2ccc(Cl)cc2Br)c1	0.5	-17.0	-0.9	1.2%	-1.6
CC(C)CCN1C(=O)c2ccc(C(=O)Nc3ccc(Br)cc3C(=O)O)cc2C1=O	8.9	·	-2.4	·	·
CCOc1ccc(NC(=O)CN(C)C(=O)c2ccc3c(c2)C(=O)N(CCC(C)C)C3=O)cc1OCC	-0.8	·	-15.1	·	·
COc1cccc2cc(C(=O)NCCN3CCOCC3)oc12	-0.9	·	-14.1	·	·
Cc1ccc(C)c(S(=O)(=O)N2CCCOC2CNC(=O)C(=O)NC2CCCCC2)c1 (stereo not drawn)	0.7	·	0.6	·	·
The listing continues:
SMILES	RecA intein inh	YopH PTP inh	Mtb betalactam	Mtb H37Rv	Arbovirus inh	others
O=C(Nc1ccc(Nc2ccccc2)cc1)c1c(Cl)cccc1Cl	8.8	·	31.8	·	·
O=C(NCCC1CCCCN1S(=O)(=O)c1ccc(Cl)cc1)C(=O)NCCN1CCOCC1 (stereo not drawn)	0.3	·	-13.5	·	·
NC(=O)c1sc2nc3c(c(-c4ccc(Cl)cc4)c2c1N)CCCC3	-11.1	-18.8	-0.7	-7.4%	-1.5
O=C(c1cc2c(=O)oc3ccccc3c2s1)N1CCOCC1	-0.6	-40.2	4.3	1.8%	2.6
COc1cc(/C=C(/C#N)C(=O)Nc2ccccc2)ccc1OCc1ccc(C(=O)O)cc1	0.9	·	-2.5	-2.7%	8.1
CCOC(=O)N1CCN(S(=O)(=O)c2ccc(C(=O)N(CCN(C)C)c3nc4c(C)cccc4s3)cc2)CC1	0.8	·	-23.6	·	·
O=C(COC(=O)C1(c2ccccc2)CC1)N1CCN(c2ccc(F)cc2)CC1	0.8	-50.4	-8.9	-2.2%	3.4
CCn1c(Cc2cccs2)nnc1SCC(=O)NC(C)(C)C	-1.8	·	5.1	4.2%	6.3
CCOC(=O)c1ccc(-n2nc(C)cc2C)cc1	1.6	·	13.3	-7.1%	·
O=C(NCc1ccncc1)c1ccc(Oc2ccccc2)cc1	-1.3	·	4.7	0.3%	17.2
O=C(O)CC(NC(=O)Cc1ccccc1)c1ccccc1 (stereo not drawn)	-2.2	·	-3.0	·	·
O=C(CSc1nc2ccccc2c(=O)[nH]1)Nc1cccc([N+](=O)[O-])c1	0.5	·	-3.3	·	·
CCN(CC)CCNC(=O)c1ccc(NC(=O)c2ccc(Cl)c(S(=O)(=O)Nc3ccccc3OC)c2)cc1	·	-14.7	·	0.1%	-8.8
COc1cccc(C(=O)NC(=S)Nc2ccc([N+](=O)[O-])cc2C)c1	-6.6	-21.5	4.9	5.8%	-17.0
O=C(NCc1cccs1)C1CCN(c2nc3ccccc3o2)CC1	-10.5	-43.3	-3.3	·	1.4
C#Cc1cccc(NC(=O)C2CCN(C(C)=O)CC2)c1	-2.1	·	-0.3	2.0%	0.0
CC(C)c1nc2cc(C(=O)N3CCNC(=O)C3c3ccc(F)cc3)ccc2o1 (stereo not drawn)	-0.6	·	-3.4	·	·
CC(OC(=O)Cc1coc2ccc3ccccc3c12)C(=O)Nc1ncc(Cl)cc1Cl (stereo not drawn)	2.7	-10.4	0.6	8.1%	13.1
COC1CCN(C(=O)c2ccc3oc(Cc4ccc(Cl)cc4)nc3c2)CC1	3.5	·	0.6	·	·
CCOC(=O)N1CCN(c2c(NCCc3ccc(C)cc3)c(=O)c2=O)CC1	-0.1	·	3.9	·	-3.4
CN(Cc1nc(-c2cnccn2)no1)Cc1n[nH]c2c1CCCC2	1.7	·	·	7.5%	0.8
CCCN(CCC)c1c([N+](=O)[O-])c(=O)oc2ccccc12	-2.5	-3.7	-0.5	-5.1%	-8.0
O=C(O)C1CCCCC1C(=O)Nc1cnn(Cc2ccccc2)c1 (stereo not drawn)	-2.2	-28.1	0.6	3.3%	5.1
CC(=O)c1cccc2c(O)c(C3=Nc4ccccc4C3=O)[nH]c12	41.5*	48.4	90.8	47.8%	-12.9
O=C(Nc1cccc(S(=O)(=O)N2CCOCC2)c1)c1cnn2c(C(F)F)cc(-c3ccccc3)nc12	0.8	·	-0.3	-7.2%	-3.5

Three compounds already listed, arranged by SMILES length, descending:
SMILES	RecA intein inh	YopH PTP inh	Mtb betalactam	Mtb H37Rv	Arbovirus inh	others
COc1cc(/C=C(/C#N)C(=O)Nc2ccccc2)ccc1OCc1ccc(C(=O)O)cc1	0.9	·	-2.5	-2.7%	8.1
CCOC(=O)N1CCN(c2c(NCCc3ccc(C)cc3)c(=O)c2=O)CC1	-0.1	·	3.9	·	-3.4
O=C(O)CC(NC(=O)Cc1ccccc1)c1ccccc1 (stereo not drawn)	-2.2	·	-3.0	·	·

2 compounds drawn at random from those above, as already listed:
SMILES	RecA intein inh	YopH PTP inh	Mtb betalactam	Mtb H37Rv	Arbovirus inh	others
CC(C)c1nc2cc(C(=O)N3CCNC(=O)C3c3ccc(F)cc3)ccc2o1 (stereo not drawn)	-0.6	·	-3.4	·	·
O=C(NCc1cccs1)C1CCN(c2nc3ccccc3o2)CC1	-10.5	-43.3	-3.3	·	1.4

The list goes on.
SMILES	RecA intein inh	YopH PTP inh	Mtb betalactam	Mtb H37Rv	Arbovirus inh	others
CC(=O)N(CCS(=O)(=O)c1ccc(Cl)cc1)Cc1cccs1	0.2	·	-5.3	-0.7%	·
CN(Cc1ccccc1)C(=O)COc1ccc(C(C)(C)C)cc1	1.9	·	2.1	·	·
O=C(NCc1cn2ccsc2n1)Nc1cccc(Cl)c1	4.8	-29.2	-2.7	0.5%	-6.8
COc1ccccc1CC(=O)Nc1ccc(-c2noc(COc3cccc(C)c3C)n2)cc1	-4.5	-23.5	-1.5	2.4%	-10.7
COC(=O)c1sc(NC(=O)CSc2nnc(Cn3nnc4ccccc43)n2C)nc1C	0.9	-12.2	9.4	-4.3%	-11.6
Cc1oc2ccc(O)cc2c1C(=O)OC(C)C	-1.9	-6.3	0.1	?	-1.7
COc1ccc(C(NC(=O)c2cccc(F)c2)c2ccccc2)cc1 (stereo not drawn)	-3.0	-41.8	7.6	-1.9%	0.7
CCOc1ccc(S(=O)(=O)NCC2CCCO2)c2ccccc12 (stereo not drawn)	0.9	·	-0.7	·	·
CC(C)(Cl)C1Cc2cc3ccc(=O)oc3cc2O1 (stereo not drawn)	0.3	-32.2	4.8	2.3%	-7.3
N#CC1=C(Nc2ccccc2)SC=C(c2ccc(F)cc2)N=C1N1CCOCC1	4.2	6.5	-1.3	·	-3.4
O=C(c1ccccc1)N(CCN1CCOCC1)C1(C(=O)Nc2ccccc2)CCCCC1	-0.9	-2.5	3.8	-6.9%	2.6
O=C(NCc1ccccc1)c1cccc(NC(=O)c2ccco2)c1	-1.1	-8.1	-4.5	1.3%	-23.1
Cc1nc(-c2ccccc2OC(F)(F)F)[nH]c(=O)c1Cl	-2.9	·	-5.0	-7.2%	·
FC(F)(F)c1nnc2c(Sc3ccccc3)nc3ccccc3n12	1.9	-32.1	2.1	2.2%	2.4
CC(=O)OCCNc1cc(SCc2ccco2)c2nonc2c1[N+](=O)[O-]	78.3*	-3.8	100.1	0.657µM*	-36.7
COc1ccccc1CCNC(=O)C(=O)NCC1OCCN1S(=O)(=O)c1ccc(F)cc1 (stereo not drawn)	1.0	·	-7.1	·	·
CSC(=S)N/N=C(\C)c1ccc(Br)cc1	3.7	·	54.3	?	-2.1
CN(C(=O)CC(NC(=O)c1ccccc1)(c1ccccc1)c1ccccc1)c1ccccc1	14.9	12.3	-11.1	-10.7%	-20.5
CC(=O)Nc1ccc(NC(=O)c2ccccc2N(C)S(C)(=O)=O)cc1	6.1	-0.1	0.2	-3.5%	0.4
COc1ccc(NC(=O)c2ccc(OC(F)F)cc2)cc1Cl	2.5	-27.4	95.2	20.7µM*	-3.4
COc1cc(NC(=O)C2=COCCO2)c(OC)cc1Cl	-1.4	·	-5.2	·	·
C=CCn1c(SCc2csc(C)n2)nc2sc3c(c2c1=O)CCCCC3	9.8	-3.8	-19.8	-0.9%	-23.4
CCCc1cc(=O)oc2cc(OCC(=O)N3CCc4ccccc43)ccc12	-4.2	-78.6	0.5	-12.5%	-14.8
COC(=O)c1cc(Br)c(=O)n(Cc2ccncc2)c1	-2.3	-24.6	-9.0	-1.2%	0.5
COCC(=O)N/N=C/c1ccc(Sc2nc3ccccc3s2)o1	3.5	-26.8	2.9	0.6%	-1.2
Further compounds
SMILES	RecA intein inh	YopH PTP inh	Mtb betalactam	Mtb H37Rv	Arbovirus inh	others
Cc1cccc(C)c1-n1c(C)cc(/C=C2\NC(=O)NC2=O)c1C	6.4	-6.5	66.0	-0.5%	0.9
COc1ccccc1Oc1c(C)oc2c(CN3CCOCC3)c(O)ccc2c1=O	-1.8	·	1.5	-2.9%	·
CCOC(=O)c1sc(NC(=O)c2ccc(S(=O)(=O)N(C)C)cc2)cc1C	-5.5	-10.8	-22.1	7.3%	-2.8
Cc1nn(C)c(C(=O)N2CCc3ccccc32)c1Cl	7.1	40.8	-9.1	-7.9%	2.8
CC(C)NC(=O)C(=O)NCCN1CCN(S(=O)(=O)c2ccc(Cl)cc2)CC1	-3.3	2.5	-1.5	15.6%	5.8
CC(C(=O)N(C)c1ccccc1)N1CCN(C(=O)c2ccccc2)CC1 (stereo not drawn)	-0.4	·	3.7	·	·
Cc1cccc(CN2CCCC(C(=O)c3cccc(OC(C)C)c3)C2)n1 (stereo not drawn)	0.1	·	96.7	12.3µM*	3.8
Cc1c(NC(=O)C(C)Sc2ccccc2)c(=O)n(-c2ccccc2)n1C (stereo not drawn)	-4.8	7.4	0.5	0.8%	17.0

Not a retest: entries from further up.
SMILES	RecA intein inh	YopH PTP inh	Mtb betalactam	Mtb H37Rv	Arbovirus inh	others
Cc1cccc(CN2CCCC(C(=O)c3cccc(OC(C)C)c3)C2)n1 (stereo not drawn)	0.1	·	96.7	12.3µM*	3.8
Cc1c(NC(=O)C(C)Sc2ccccc2)c(=O)n(-c2ccccc2)n1C (stereo not drawn)	-4.8	7.4	0.5	0.8%	17.0
